Bioassay records deposited in PubChem BioAssay by Broad Institute.
Beta cell apopt: beta cell apoptosis inhibition | INS-1E cytokine-induced death, ATP luminescence, 48 h; percent of positive-control rescue, neutral wells zero | protection from apoptosis, % (test concentration not listed) | 0.8% of 300,000 active | AID 435005;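 active means all replicates at 75% or more, or half of them and the mean; inconclusive means half reach 75% but not the mean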;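 further: 0% = cytokine-treated negative control wells and 100% = positive control rescue; higher means more ATP so stronger rescue from cytokine killing; wells of about 40 µL received 100 nL stock; the first replicate is given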
rRNA inh HTS: inhibits bacterial ribosomal RNA function over humanized ribosomes; E. coli WT GFP vs humanized-ribosome RFP mutants, fluorescence, 24 h; hits give low values; DMSO median 0, no signal -100; GFP signal change (wild-type ribosome), % (concentration not given with the values); 1.6% of 350,000 active; AID 720706;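 active means significant combined selectivity score with lowered wild-type GFP, culture density cut under 30%, mutant RFP and density less affected; inactive means any of these conditions unmet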; further: one replicate is shown; some compounds called inactive have numbers as strong as hits
FGF22 binding: FGF22 (human) thermal shift binding | Q9HCT0 | recombinant FGF22 thermal shift, SYPRO orange fluorescence; percent of sucrose octasulfate shift, DMSO zero | calls only at 9.99 µM | 1.5% of 340,000 active;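 active means melting point raised past a set limit in the mean and every replicate; inconclusive means no clear call; three in four hits are not shown here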
Target sequence (Q9HCT0 whole entry, looked up): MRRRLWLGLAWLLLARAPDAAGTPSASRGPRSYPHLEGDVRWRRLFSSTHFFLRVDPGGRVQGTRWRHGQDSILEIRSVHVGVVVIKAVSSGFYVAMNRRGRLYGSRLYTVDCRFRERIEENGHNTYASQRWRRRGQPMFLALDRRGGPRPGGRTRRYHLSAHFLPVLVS
RanGTP-Imp inh: inhibitors of RanGTP-importin-beta interaction, primary screen, biochemical, FRET, CFP-Ran, YFP-importin-beta, homogeneous. 1.1% of 300,000 active. AID 2216. inhibition, % (concentration not given with the values). cell-free CFP-Ran/YFP-importin-beta FRET ratio;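 active means most replicates above 15%; inconclusive means exactly half above 15%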;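 further: 0% = DMSO wells and 100% = Ran loaded with GDP instead of GTP; wells of about 40 µL received 100 nL stock; the first replicate is given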
AF4-AF9 inh: inhibitors of human MLL-AF4/AF9 interaction. AlphaScreen, biotin-AF4 peptide binding to FLAG-AF9. inhibition, % at 10 µM. P42568. 0.47% of 350,000 active;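 active means every replicate reaching a set inhibition limit, whatever the replicate mean, cut at about 25% in these data; inconclusive means mean inhibition reaches that limit but some replicates miss it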;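 further: 0% = plate neutral control median and 100% = total signal loss; the record names both 10 and 1 µM as test concentration; the first replicate is given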
Target sequence (P42568 whole entry, looked up): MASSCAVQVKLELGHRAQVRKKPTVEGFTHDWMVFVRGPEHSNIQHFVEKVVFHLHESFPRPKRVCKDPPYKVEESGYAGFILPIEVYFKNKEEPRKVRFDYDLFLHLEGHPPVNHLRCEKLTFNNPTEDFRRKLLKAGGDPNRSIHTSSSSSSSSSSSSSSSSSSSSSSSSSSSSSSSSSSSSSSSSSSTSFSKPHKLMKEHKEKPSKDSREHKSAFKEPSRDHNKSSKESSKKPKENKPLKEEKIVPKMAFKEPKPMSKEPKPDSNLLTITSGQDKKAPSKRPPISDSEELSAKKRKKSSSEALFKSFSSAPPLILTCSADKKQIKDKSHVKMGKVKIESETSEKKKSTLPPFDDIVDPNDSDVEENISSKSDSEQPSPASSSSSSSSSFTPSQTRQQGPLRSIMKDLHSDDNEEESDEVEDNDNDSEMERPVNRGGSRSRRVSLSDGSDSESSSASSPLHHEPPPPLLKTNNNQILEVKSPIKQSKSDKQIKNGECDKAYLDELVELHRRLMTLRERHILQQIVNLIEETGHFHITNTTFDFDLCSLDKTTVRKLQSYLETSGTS
Calb FLC: C. albicans growth modulation with fluconazole. C. albicans CaCi-2 (fluconazole-resistant clinical isolate) + fluconazole, Alamar Blue growth, 48 h. growth inhibition, % (concentration not given with the values). 0.57% of 300,000 active;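 active means most replicates above 75%; inconclusive means exactly half above 75%; inactive means most below 75%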;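 further: all wells also contain fluconazole at 8 µg/ml as a sub-toxic cotreatment; 0% = median of DMSO wells and 100% = median of geldanamycin control wells; wells of about 8 µL received 7.5 nL stock; the first replicate is given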
T cruzi repl: blocks replication of Trypanosoma cruzi | T. cruzi beta-gal in NIH3T3, luminescence, 90 h | inhibition, % (test concentration not listed) | 1.4% of 300,000 active | AID 1885;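 active means mean inhibition across valid replicates above about 55%, limit read from the data; inconclusive means mean below that limit but half or more replicates reach it; inactive means mean below it, under half of replicates reach it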;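 further: signal also drops with host cell toxicity which is not excluded here; 0% = plate median of DMSO wells and 100% = zero luminescence signal; higher percent means less beta-gal luminescence so fewer parasites; stock transfer was 50 nL into about 50 µL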
ALR H2O2 inh: inhibitors of human sulfhydryl oxidase ALR; purified ALR, DTT oxidation, H2O2 HRP-luminol luminescence; inhibition, % (no concentration beside the values); 3.8% of 290,000 active; AID 485317;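 active means mean and each replicate at 75% or more; inconclusive means only one of the two met; inactive means neither met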;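 further: stock transfer was 7.5 nL into about 7.5 µL; 0% = neutral wells and 100% = wells with inactivated enzyme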
Target sequence (P55789 whole entry, looked up): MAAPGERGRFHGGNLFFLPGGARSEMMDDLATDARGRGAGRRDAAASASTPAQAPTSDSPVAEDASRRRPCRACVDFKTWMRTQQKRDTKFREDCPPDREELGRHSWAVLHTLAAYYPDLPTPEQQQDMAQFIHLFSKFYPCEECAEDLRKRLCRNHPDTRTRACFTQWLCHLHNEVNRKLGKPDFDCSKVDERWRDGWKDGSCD
rRNA inh HTS OD600: further read-out of rRNA inh HTS, marked with its call; OD600 change, %; measured here: OD600 growth;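 optical density of the mix in the first replicate; 0 = DMSO median and -100 = no signal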
rRNA inh HTS RFP: also measured in rRNA inh HTS; calls as there; RFP signal change, %; measured here: RFP humanized mutant strains;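 first replicate; 0 = DMSO median and -100 = no signal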
Active calls of the source: *; i = inactive; ? = inconclusive; nt = not tested or not shown.

The opening 5 entries as a preview:
SMILES	Beta cell apopt	rRNA inh HTS	rRNA inh HTS OD600	rRNA inh HTS RFP	FGF22 binding	RanGTP-Imp inh	AF4-AF9 inh	Calb FLC	T cruzi repl	ALR H2O2 inh
CCCN(CC(=O)Nc1cc(Cl)ccc1Cl)C(=O)c1ccccn1	-5	-4	0	-2.2	i	nt	-1.7	nt	nt	-9
Cc1cc(NS(=O)(=O)c2ccc(NC(=O)c3ccccc3F)cc2)no1	-2	2	4	0.3	i	nt	1.0	nt	nt	-5
O=C(Nc1ccc(Cl)cc1)c1ccc(OCC2CCCO2)cc1 (centres undefined)	3	11	18	2.0	i	-1.3	-2.0	32	4	-2
Cn1cc(C(=O)c2cccc(Cl)c2Cl)cc1C#N	nt	-7	-2	-2.4	i	0.9	-2.2	8	-19	-5
Cc1ccc(OCC(=O)OCC(=O)NC2CCCC2)cc1C	-1	10	10	-1.3	i	nt	2.9	nt	nt	1

The list itself (from the top)
SMILES	Beta cell apopt	rRNA inh HTS	rRNA inh HTS OD600	rRNA inh HTS RFP	FGF22 binding	RanGTP-Imp inh	AF4-AF9 inh	Calb FLC	T cruzi repl	ALR H2O2 inh
CCCN(CC(=O)Nc1cc(Cl)ccc1Cl)C(=O)c1ccccn1	-5	-4	0	-2.2	i	nt	-1.7	nt	nt	-9
Cc1cc(NS(=O)(=O)c2ccc(NC(=O)c3ccccc3F)cc2)no1	-2	2	4	0.3	i	nt	1.0	nt	nt	-5
O=C(Nc1ccc(Cl)cc1)c1ccc(OCC2CCCO2)cc1 (centres undefined)	3	11	18	2.0	i	-1.3	-2.0	32	4	-2
Cn1cc(C(=O)c2cccc(Cl)c2Cl)cc1C#N	nt	-7	-2	-2.4	i	0.9	-2.2	8	-19	-5
Cc1ccc(OCC(=O)OCC(=O)NC2CCCC2)cc1C	-1	10	10	-1.3	i	nt	2.9	nt	nt	1
CC(=O)NC(Cc1ccccc1)C(=O)NC1CCN(C(=O)NCc2ccccc2)CC1 (centres undefined)	nt	10	17	2.6	i	0.3	0.0	1	-4	nt
O=C(N/N=C/c1cccnc1)c1cc2c(ccc3ccccc32)o1	-1	nt	nt	nt	nt	1.2	nt	12	-5	-24
COc1ccc(S(=O)(=O)N2CCCC(C(=O)N3CCN(c4ccccc4)CC3)C2)cc1Cl (centres undefined)	2	-12	-22	0.4	i	-1.3	3.4	-5	16	2
CC(C)(C)c1ccc(NC(=O)CNC2CCCc3ccccc32)cc1 (centres undefined)	-3	-62	-84	-20	i	-0.2	0.5	3	?	-15
COc1cccc(-c2cc(C(F)(F)F)nc(-n3cc(Cl)cn3)n2)c1	5	nt	nt	nt	nt	2.4	nt	?	48	nt
C#CC(=O)CCC1CCCN1C(=O)OC(C)(C)C (centres undefined)	-4	4	17	2.6	i	nt	nt	nt	nt	0
O=C(c1ccc(Cl)cc1)N1CCCCC(Sc2nnc(-c3ccc4c(c3)OCO4)o2)C1=O (centres undefined)	-3	nt	nt	nt	nt	4.5	nt	8	-2	-14
O=C(c1ccccc1)c1nccn1-c1ccc(Cl)nn1	-4	-36*	-26*	-3.3*	i	3.8	5.4	-9	-4	-2
Cc1cc(NC(=O)CSc2nc3c([nH]c4ccccc43)c(=O)n2-c2ccccc2F)no1	-12	-3	-14	8.5	i	nt	2.3	nt	18	1
Cc1ccccc1NC(=S)N1CCN(C(=O)c2ccco2)CC1	3	3	4	-1.9	i	-0.8	-0.3	36	-13	-4
CCOC(=O)N1CCN(C(=O)CNC(=O)c2ccc(Cl)cc2)CC1	-2	2	6	-2.8	i	2.5	-2.0	7	2	-5
COc1ccc(Cl)cc1Nc1nc(-c2sc(NC(=O)c3ccco3)nc2C)cs1	nt	-4	8	-0.5	i	-2.4	4.4	-2	-9	2
CC(=O)N1c2ccccc2C(C)(c2ccccc2)CC1(C)C (centres undefined)	9	nt	nt	nt	nt	0.9	nt	1	16	-8
O=C(COc1ccccc1)Nc1nnc(C23CC4CC(CC(C4)C2)C3)s1	-2	2	5	1.2	i	-1.0	2.6	9	16	-10
Cc1ccc(S(=O)(=O)CC(c2ccccc2)N2CCOCC2)cc1 (centres undefined)	nt	nt	nt	nt	nt	9.5	nt	2	-1	-4
COc1ccc(S(=O)(=O)Nc2cc(Sc3ncn[nH]3)c(O)cc2C)cc1	0	3	16	22	i	nt	-2.9	nt	nt	98*
CCCCCCCCCCC(=O)NNC(=O)c1c(O)c2ccccc2n(CC)c1=O	-2	nt	nt	nt	nt	2.3	nt	3	-13	-17
O=S(=O)(/N=C(/Nc1ccccc1)c1ccccc1)c1cccs1	5	5	4	-1.9	i	-3.5	-0.3	-40	7	-4
N#Cc1nc(Cc2cccc3ccccc23)oc1NCCCN1CCOCC1	3	-14	-22	12	i	6.5	-14	-12	29	14
O=C(NCc1ccncc1)C1CCN(S(=O)(=O)c2ccccc2)CC1	2	4	2	-3.1	i	-6.3	5.0	-4	10	nt
COc1ccc(C(=O)Nc2ccc(C(=O)Nc3cccnc3)cc2)cc1	-1	6	7	4.1	i	-0.4	-0.7	7	-16	nt
COc1cccc(CN(C)C(=O)c2ccc3nccnc3c2)c1	-4	nt	nt	nt	nt	1.9	nt	-1	-10	-10
Cc1sc(NC(=O)CN2CCOCC2)nc1-c1ccc2c(c1)CCN2S(=O)(=O)c1ccccc1	70	-21*	-6.6*	0.3*	i	-1.6	-34	1	-5	-5
C/C(=N/NC(=O)CNC(=O)c1ccccn1)c1cccc([N+](=O)[O-])c1	5	20	9	1.1	i	-1.4	-3.9	10	6	-1
Cc1ccc(NC(=O)c2cccc(OCc3c(C)noc3C)c2)c(C)c1	4	nt	nt	nt	nt	-0.8	nt	-3	23	-3
CCOC(=O)C(C)Sc1nnc(NC(=O)c2ccc3c(c2)OCO3)s1 (centres undefined)	3	-6	-10	1.6	i	1.6	-3.9	3	-5	?
CCCCOP(=O)(OCCCC)C(Nc1ccc(C(=O)OCC)cc1)c1ccncc1 (centres undefined)	0	-13	-12	3.2	i	-2.0	0.8	-2	32	-9
CC(C)CNC(=O)c1cccc(NC(=O)CSc2ccc(Cl)cc2)c1	-8	nt	nt	nt	nt	-1.0	nt	4	-6	2
CCCCc1noc2c1/C(=N\O)CC(c1ccccc1)C2 (centres undefined)	nt	nt	nt	nt	nt	-1.0	nt	12	6	3
COc1cnc(-c2ccccn2)nc1N(C)C	81*	-42	-63	-19	i	-2.9	-3.2	6	48	-13
Clc1cccc2c1CCN(Cc1nc(-c3cnccn3)no1)C2	3	14	-2	40	i	-1.1	0.8	-1	4	-5
C=CCN(C(=O)CSc1nc2c(sc3ccccc32)c(=O)n1CCN(CC)CC)c1ccccc1	19	-51	-72	-12	i	3.3	6.4	15	82*	nt
O=C(CNC(=O)c1cccc(F)c1)N/N=C/c1cccs1	-1	6	12	-0.6	i	2.4	-0.8	0	5	-3
O=c1c2c([nH]c3ccccc13)CCCC2	0	nt	nt	nt	nt	1.8	nt	-12	8	-4
O=C1c2cccc(OCc3ccc(F)cc3)c2CCN1Cc1ccccc1	-11	nt	nt	nt	nt	-2.7	nt	?	19	-4
CN(C)S(=O)(=O)c1ccc2c(c1)nc(CCC(=O)NCCc1ccc(Cl)cc1)n2C	-4	-7	-5	1.1	i	0.5	-5.1	0	14	1
O=C(CC1(O)C(=O)N(Cc2ccccc2)c2ccccc21)c1ccncc1 (centres undefined)	-4	nt	nt	nt	nt	4.4	nt	-14	-5	-5
O=C(Nc1ccc(Cl)c(Cl)c1)c1ccncc1	8	nt	nt	nt	nt	-1.9	nt	6	-4	-9
O=C1CC2(CCN(C(=O)c3cccc(Cl)c3)CC2)Oc2ccccc21	6	-7	-21	-3.4	i	-0.8	1.1	-2	0	-3
Cc1cc(C)nc(S/C=C/C(=O)c2ccccc2F)n1	-3	nt	nt	nt	i	4.2	0.4	1	41	33
COc1ccc(CCNS(=O)(=O)c2ccccc2[N+](=O)[O-])cc1OC	-6	-2	3	-5.7	i	-2.2	-0.5	40	-5	-21
N#Cc1c(NC(=O)CSc2nnnn2C2CCCC2)sc2c1CCCC2	8	nt	nt	nt	nt	0.3	nt	40	23	26
COc1ccc(-c2cc(C(F)(F)F)n3ncc(C(=O)N(C)Cc4ccccc4)c3n2)cc1	16	-14	-23	-0.8	i	9.7	-0.4	19	45	1
COc1ccc(CCNC(=O)CCS(=O)(=O)c2ccc3c(c2)oc(=O)n3C)cc1OC	-8	6	12	-2.0	i	2.8	-0.8	1	0	3
C=CCn1c(C)nnc1SCC(=O)N1CCN(S(=O)(=O)c2ccccc2)CC1	-7	5	1	8.2	i	-3.4	-6.7	-10	-3	-2
Next part
SMILES	Beta cell apopt	rRNA inh HTS	rRNA inh HTS OD600	rRNA inh HTS RFP	FGF22 binding	RanGTP-Imp inh	AF4-AF9 inh	Calb FLC	T cruzi repl	ALR H2O2 inh
CC(=O)Nc1ccc(SCC(=O)c2cc(C)n(CC(F)(F)F)c2C)cc1	2	nt	nt	nt	nt	6.2	nt	1	7	nt
CC(C)(C)NC(=O)CN(CCc1ccccc1)C(=O)c1csnn1	-3	11	3	-3.0	i	1.4	-1.6	6	-5	-3
CCCNC(=O)N1CCN(S(C)(=O)=O)CC1	-10	5	11	-1.0	i	1.3	-3.8	-3	-8	6
O=C(CCN1C(=O)/C(=C\c2cccc(Br)c2)SC1=S)NCCCN1CCOCC1	-8	3	7	9.9	i	-4.8	4.9	1	18	-8
O=C(CSc1ccc2nnc(-c3ccccc3)n2n1)NCc1ccco1	-2	nt	nt	nt	nt	1.8	nt	25	-14	nt
O=C(Nc1ccccn1)c1cc(-n2cnnc2)ccc1Cl	-5	nt	nt	nt	nt	2.5	nt	-9	0	-7
CNC(=O)c1ccsc1NC(=O)c1ccc2c(c1)CCCC2	5	-26*	-14*	1.0*	i	-0.7	1.4	21	14	nt
Cc1ccc(NC(=O)CN(C)C(=O)COc2cc(F)ccc2[N+](=O)[O-])cc1	0	21	15	1.8	i	0.7	0.1	3	8	-24
O=C(O)c1ccc(Cn2ccc3ccccc32)o1	nt	5	11	3.2	i	-2.7	-1.9	-15	-12	65

In the list so far, these contain a nitro group on carbon.
SMILES	Beta cell apopt	rRNA inh HTS	rRNA inh HTS OD600	rRNA inh HTS RFP	FGF22 binding	RanGTP-Imp inh	AF4-AF9 inh	Calb FLC	T cruzi repl	ALR H2O2 inh
C/C(=N/NC(=O)CNC(=O)c1ccccn1)c1cccc([N+](=O)[O-])c1	5	20	9	1.1	i	-1.4	-3.9	10	6	-1
COc1ccc(CCNS(=O)(=O)c2ccccc2[N+](=O)[O-])cc1OC	-6	-2	3	-5.7	i	-2.2	-0.5	40	-5	-21
Cc1ccc(NC(=O)CN(C)C(=O)COc2cc(F)ccc2[N+](=O)[O-])cc1	0	21	15	1.8	i	0.7	0.1	3	8	-24

Some of the compounds tested. The share of hits here may be higher or lower than overall.
